ALR inh – human ALR oxidase inhibition via reduced H2O2. purified ALR, DTT oxidation, H2O2 HRP-luminol luminescence. inhibition, % (test concentration not listed). actives 3.8% (n = 290,000). AID 485317;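 active = mean and each replicate at 75% or more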;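 note: stock transfer was 7.5 nL into about 7.5 µL; 0% = neutral wells and 100% = wells with inactivated enzyme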
Target sequence (P55789 whole entry, looked up): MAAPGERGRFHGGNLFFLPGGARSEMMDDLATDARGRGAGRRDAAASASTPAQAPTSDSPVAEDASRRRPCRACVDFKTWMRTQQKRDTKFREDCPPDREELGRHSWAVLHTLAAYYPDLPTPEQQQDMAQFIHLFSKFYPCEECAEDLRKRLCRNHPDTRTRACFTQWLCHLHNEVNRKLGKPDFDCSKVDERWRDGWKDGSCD
E coli growth – inhibitors of Escherichia coli growth | OD600, 23 h; stronger effect = lower value | actives 0.21% (n = 330,000) | OD600 absorbance (test concentration not listed);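 active = OD600 absorbance below the run mean of sample wells minus 3.6 SD, in any replicate, cut at about 0.56 in these data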;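 note: stock transfer was 300 nL into about 60 µL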
Ecoli rRNA inh – inhibitors of bacterial rRNA selective over humanized ribosomes | E. coli WT GFP vs humanized-ribosome RFP mutants, fluorescence, 24 h; stronger effect = lower value; DMSO median 0, no signal -100 | GFP signal change (wild-type ribosome), % (test concentration not listed) | actives 1.6% (n = 350,000) | AID 720706;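 active = significant combined selectivity score with lowered wild-type GFP, culture density cut under 30%, mutant RFP and density less affected; inactive = any of these conditions unmet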; note: one replicate is shown; some compounds called inactive have numbers as strong as hits
UCH37 inh – blocks the human deubiquitinase UCH37; inhibition, % (concentration not given with the values); purified proteasome/UCH37, Ub-AMC cleavage fluorescence; AID 588478; actives 0.33% (n = 330,000); Q9Y5K5;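 active = mean of two replicates above 20%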;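 note: 0% = compound-free wells with enzyme and 100% = wells lacking proteasome; stock transfer was 100 nL into about 20 µL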
Target sequence (Q9Y5K5 whole entry, looked up): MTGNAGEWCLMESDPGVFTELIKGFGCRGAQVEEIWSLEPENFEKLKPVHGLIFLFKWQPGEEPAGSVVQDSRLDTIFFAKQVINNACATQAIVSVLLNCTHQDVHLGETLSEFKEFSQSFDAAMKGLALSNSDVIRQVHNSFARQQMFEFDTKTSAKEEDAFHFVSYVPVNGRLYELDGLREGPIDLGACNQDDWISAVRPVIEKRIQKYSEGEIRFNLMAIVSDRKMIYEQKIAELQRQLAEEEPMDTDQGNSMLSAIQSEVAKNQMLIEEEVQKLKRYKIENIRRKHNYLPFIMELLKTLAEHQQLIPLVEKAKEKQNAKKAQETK
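System: Proteasome-associated human UCH37 deubiquitinase; Input: 0.15 nM proteasome in added enzyme buffer; Also added: Ub-AMC substrate from 1 µM stock; Incubation: 30 min compound-proteasome preincubation then 25 min substrate reaction, room temperature; Detection: fluorescence, ex 355 nm, em 460 nm; Read-out: % inhibition of Ub-AMC cleavage fluorescence; Benchmarks: no-proteasome and no-compound wells.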
HNF4A DNA FP – change in binding of human HNF4 alpha to DNA | P41235 | actives 0.3% (n = 360,000) | activity change, % at 10 µM | HNF4a-FITC DNA binding, fluorescence polarization, 1 h; in the data active = activity change above about 30%, passing the limit was not always enough;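 note: controls were the assay level and a saturating level of protein; the project sought stronger binding though the title names inhibitors; some compounds called inactive have numbers as strong as hits; positive values seem to mean higher polarization but the record does not say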
Beta2AR agonist – human beta-2 adrenergic receptor agonism by FAP; response, % (test concentration not listed); Am2.2-beta2AR cells, FAP receptor internalization, flow cytometry; reference of the scale not given here; actives 0.43% (n = 340,000);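 active = response above a set limit, near 3 SD of response in nonfluorescent compounds, cut at about 42% in these data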;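 note: stock transfer was 100 nL into about 11 µL; a reference agonist was the positive control; negative values mostly stem from fluorescent compounds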
FGF22 binding – shifts melting point of recombinant human FGF22; calls only at 9.99 µM; actives 1.5% (n = 340,000); recombinant FGF22 thermal shift, SYPRO orange fluorescence; percent of sucrose octasulfate shift, DMSO zero; Q9HCT0;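 active = melting point raised past a set limit in the mean and every replicate; three in four hits are not shown here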
Target sequence (Q9HCT0 whole entry, looked up): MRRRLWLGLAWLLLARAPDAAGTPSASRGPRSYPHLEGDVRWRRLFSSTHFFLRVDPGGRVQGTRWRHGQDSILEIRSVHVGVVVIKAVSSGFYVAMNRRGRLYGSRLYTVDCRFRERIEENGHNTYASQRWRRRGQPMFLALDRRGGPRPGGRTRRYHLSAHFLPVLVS
Ecoli rRNA inh OD600 – also measured in Ecoli rRNA inh; calls as there; OD600 change, %; measured here: OD600 growth;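 optical density of the mix in the first replicate; 0 = DMSO median and -100 = no signal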
Ecoli rRNA inh RFP – also measured in Ecoli rRNA inh; calls as there; RFP signal change, %; measured here: RFP humanized mutant strains;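 first replicate; 0 = DMSO median and -100 = no signal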
Active calls of the source: *; i = inactive; . = not tested or not shown. Some of the compounds tested (hit frequency here may not be typical).

SMILES	ALR inh	E coli growth	Ecoli rRNA inh	Ecoli rRNA inh OD600	Ecoli rRNA inh RFP	UCH37 inh	HNF4A DNA FP	Beta2AR agonist	FGF22 binding
O=C(NC[C@@H]1CC[C@@H](Cc2ccc(-c3ccccc3)cc2)O1)Nc1ccc(Br)cc1	.	.	-21	-25	1.7	.	3.2	-6	i
O=C(CSc1nc2ccccc2o1)c1ccc2c(c1)OCCO2	-15	0.69	.	.	.	0.8	-1.8	13	.
Clc1ccc(Sc2cc(N3CCOCC3)nc(-c3ccccc3)n2)cc1	-15	0.77	.	.	.	-0.9	1.1	-2	.
CCOC(=O)C(=O)/C(=C\N(C)C)c1onc(-c2c(F)cccc2Cl)c1C(=O)OC	25	0.74	.	.	.	9.3	-2.8	12	.
O=C(O)c1cccc(NC(=O)c2ccccc2)c1	.	0.66	10	-1	7.7	1.3	1.8	-1	i
CC1=C(C(=O)OC(C)C)C(c2ccc(O)cc2)NC(=O)N1 (configuration not stated)	4	0.71	3	10	9.6	2.3	3.2	-1	i
O=C(CSc1nc2ccc(NC(=O)C3CCCCC3)cc2s1)NCC1CCCO1 (configuration not stated)	.	0.7	.	.	.	0.1	3.6	-1	.
CCCCNC(=O)c1ccc2c(SCC(=O)O)c3c(nc2c1)CCCC3	.	0.67	.	.	.	0.5	-5.8	-3	.
COc1ccc(C2=NOC3(CC(=O)N(c4ccc(F)cc4)C3=O)C2)cc1 (configuration not stated)	-2	0.64	9	6	13	6.1	5.0	8	i
CC(=O)OCCN(CCOC(C)=O)c1c(C)[nH]c(=O)[nH]c1=O	-2	0.69	5	3	-0.6	5.6	-3.3	1	.
O=C(Nc1cccnc1)c1cccs1	1	0.65	14	4	-7.8	2.8	0.1	-2	i
CN(C(=O)COC(=O)c1cccnc1Nc1ccccc1F)C1CCS(=O)(=O)C1 (configuration not stated)	-16	0.73	19	11	-2.0	5.7	1.5	0	i
Nc1ccc(N2CCCCC2)c2nonc12	-43	0.7	14	0	2.9	21*	-0.1	7	i
Cc1ccc2oc(=O)c3cc(C(=O)NCCN4CCN(C)CC4)sc3c2c1	0	0.73	-6	-7	1.0	-15	4.4	-4	i
COc1cccc(-c2cnc3c(NC(C)=O)cc(-c4ccc(S(C)(=O)=O)cc4)cn23)c1	.	.	-1	3	7.1	.	1.7	.	i
CCN(CC)c1ccc(NC(=O)c2cncc(Br)c2)cc1	99*	0.72	.	.	.	3.9	3.1	3	.
O=C(CSc1nc(-c2ccc(Cl)cc2)[nH]c(=O)n1)Nc1cccc(Cl)c1	99*	0.66	10	8	3.0	3.5	2.3	10	i
Cn1c(SCC(=O)NCC2CCCO2)nc2c(c1=O)SCC2 (configuration not stated)	-5	0.74	12	8	-0.5	1.6	-0.8	-4	i
CCOc1cc(/C=C2\NC(=O)NC2=O)cc([N+](=O)[O-])c1O	88*	0.7	-6	-10	4.8	21*	-2.9	10	i
Cc1ccc(-c2nc(CS(=O)CC(=O)NCCC(C)C)c(C)o2)cc1 (configuration not stated)	98*	0.77	0	-16	0.5	3.5	-2.3	-11	i
CC(C(=O)N1CCOCC1)c1ccc([N+](=O)[O-])cc1 (configuration not stated)	2	0.71	16	12	-0.2	4.2	-2.7	-3	i
Cn1nc(-c2ccc(OCC(N)=O)cc2)c2ccccc2c1=O	-10	0.72	.	.	.	0.1	-3.0	5	.
CCN[C@H]1CN(CCCOC)S(=O)(=O)c2sc(S(N)(=O)=O)cc21	.	.	.	.	.	1.1	0.0	12	i
CC(O)[C@H]1CC[C@H]2[C@@H]3CC[C@H]4C[C@@H](O)CC[C@]4(C)[C@H]3/C(=N/O)C[C@]12C (some centres not stated)	-6	.	-36	-39	-25	.	-1.9	3	i
O=C(CN1C(=O)CC(c2ccccc2)S(=O)(=O)c2ccccc21)NC1CCCC1 (configuration not stated)	-2	0.7	9	6	-6.1	9.4	0.1	-5	i

The list goes on.
SMILES	ALR inh	E coli growth	Ecoli rRNA inh	Ecoli rRNA inh OD600	Ecoli rRNA inh RFP	UCH37 inh	HNF4A DNA FP	Beta2AR agonist	FGF22 binding
CCCCOc1ccccc1-c1ccccc1CN1[C@@H](C(C)C)COCCS1(=O)=O	.	0.71	12	10	-0.6	3.7	1.3	-5	i
CC(C)CCn1c(Cl)nc2c1c(=O)n(C)c(=O)n2C	47	0.68	.	.	.	6.4	-1.5	-6	.
COc1ccc(C(=O)/C=C/c2cccs2)c(OC(=O)N2CCOCC2)c1	9	0.7	-4	4	-0.5	10	0.3	-20	i
COc1cc(CC(=O)OCC(=O)c2c[nH]c3ccccc23)cc(OC)c1OC	-3	0.69	-5	-20	-4.2	0.0	4.2	17	i
Cc1ccc(C(=O)Nc2ccc(C(=O)O)cc2)cc1S(=O)(=O)Nc1cccc([N+](=O)[O-])c1	4	0.71	-2	-2	-2.3	3.2	-1.1	-5	i
CCOc1ccccc1NC(=O)NC1(C(=O)N2CCOCC2)CCCCC1	-1	0.72	.	.	.	4.2	-1.0	8	.
CCOC(=O)C(C#N)(Cc1ccc2ccccc2n1)Cc1ccc2ccccc2n1	.	0.69	-7	-15	2.5	0.0	-6.1	10	i
O=C(NC(=S)Nc1ccc2oc(=O)ccc2c1)c1cc2ccccc2o1	-10	0.7	6	18	-1.2	0.7	-9.1	-8	i
CC(=O)N/N=c1\sc2ccccc2n1C	15	.	26	14	2.5	.	-2.0	-1	i
COc1ccc(NC(=O)C23CC4CC(C2)CC(n2cnc(Br)n2)(C4)C3)c(OC)c1	-7	0.69	.	.	.	3.8	0.1	7	.
Cc1ccc(NC(=O)CCSc2ccccn2)cc1	-7	0.67	.	.	.	-1.5	4.9	-5	i
O=C(NCn1ccc(=O)[nH]c1=S)c1ccccc1	9	0.79	.	.	.	1.4	-3.6	5	.
CCN(CC)S(=O)(=O)c1ccc(-c2nnc(SCC(=O)Nc3ccc4c(c3)OCO4)o2)cc1	8	0.67	5	5	2.9	2.7	-1.2	5	i
CCOC(=O)c1csc(NC(=O)CSc2nnnn2-c2ccc(OC)cc2)n1	-3	0.71	.	.	.	-3.3	-1.0	-1	.
O=S(=O)(NCc1cccnc1)c1ccc(Cl)s1	.	0.72	.	.	.	1.1	1.7	14	.
CCCOc1ccc(C(=O)c2nc3c(n2O)CCCCC3)cc1	-4	0.7	.	.	.	7.2	5.2	-8	.
CCOC(=O)N1CCN(C(=O)C[C@@H]2C[C@@]3(C(=O)OCC)CCCC=C3N(CCC3=CCCCC3)C2=O)CC1	.	.	-13	-4	1.8	.	-2.7	.	i
COc1ccc(CNC(=O)C2(C)Cc3c(-c4cccc(NC(C)=O)c4)ccnc3O2)cc1OC (configuration not stated)	.	.	2	-11	5.2	.	0.0	.	i
C=C[C@@H]1c2cccc(C)c2N(S(=O)(=O)c2ccc(C)cc2)[C@H](c2ccccc2)C1(C#N)S(=O)(=O)c1ccccc1 (some centres not stated)	5	.	7	-1	-5.7	-1.2	5.9	0	i
O=C(c1cccc(S(=O)(=O)N2CCCC2)c1)c1cccc(S(=O)(=O)N2CCCC2)c1	1	0.76	.	.	.	2.5	0.6	2	.
COc1ccc(S(=O)(=O)NCc2ccccn2)cc1NC(=O)c1ccccc1C	-8	0.68	0	-5	-3.0	4.9	-1.0	-12	i
Cc1ccc2nc(N3CCN(C(=O)c4ccco4)CC3)sc2c1	-3	0.65	-7	-5	-2.0	3.3	-4.1	7	i
CSc1ccc(CN(C)C(=O)CSCC(=O)Nc2cc(C)on2)cc1	-1	0.69	-1	4	3.4	-0.1	1.6	3	i
Cc1cc(Cl)c2oc(C(=O)N(C)CC3CCOCC3)c(C)c2c1	-2	0.61	-29	-27	-3.4	0.9	2.1	8	i
COc1ccc(S(=O)(=O)N(CC(=O)NCc2ccncc2)c2ccc(C)cc2)cc1OC	-10	0.69	-4	-2	-4.1	1.5	-0.6	-2	i

An excerpt of these results, with the structure last.
ALR inh | E coli growth | Ecoli rRNA inh | Ecoli rRNA inh OD600 | Ecoli rRNA inh RFP | UCH37 inh | HNF4A DNA FP | Beta2AR agonist | FGF22 binding | mol
-3 | 0.71 | . | . | . | -3.3 | -1.0 | -1 | . | CCOC(=O)c1csc(NC(=O)CSc2nnnn2-c2ccc(OC)cc2)n1
. | 0.71 | 12 | 10 | -0.6 | 3.7 | 1.3 | -5 | i | CCCCOc1ccccc1-c1ccccc1CN1[C@@H](C(C)C)COCCS1(=O)=O
-1 | 0.69 | -1 | 4 | 3.4 | -0.1 | 1.6 | 3 | i | CSc1ccc(CN(C)C(=O)CSCC(=O)Nc2cc(C)on2)cc1

(cont.)
SMILES	ALR inh	E coli growth	Ecoli rRNA inh	Ecoli rRNA inh OD600	Ecoli rRNA inh RFP	UCH37 inh	HNF4A DNA FP	Beta2AR agonist	FGF22 binding
CC1(C)NC(=O)N(CCCCOc2ccc(Br)cc2Cl)C1=O	-11	0.7	.	.	.	4.8	-0.1	-3	.
COc1ccc2c(c1OC)C(=O)N(c1ccc3c(c1)CCC3)C2=O	-2	0.72	.	.	.	0.6	2.0	-14	.
Cc1cn(CC(=O)NCC(c2ccccc2)c2ccccc2)c(=O)[nH]c1=O	.	.	-1	2	-1.7	.	1.6	10	i
CCOc1ccc(C(=O)Nc2cccc3cccnc23)cc1	10	0.67	8	13	2.5	-2.7	3.2	-6	i
Cc1ccc(S(=O)(=O)N2CCC(C(=O)O)CC2)cc1C(=O)O	-1	0.73	.	.	.	2.1	1.2	0	.
CCOc1ccc(S(=O)(=O)/N=C(/Nc2ccc(S(N)(=O)=O)cc2)c2ccccc2)cc1	-9	0.66	-1	-15	0.4	1.3	1.6	-2	i
CCN1CCN(c2nc(NCCO)c3ccccc3n2)CC1	-6	0.65	6	13	1.4	-127	-2.3	-4	i
Cc1cc(OCC(=O)Nc2ncn[nH]2)ccc1Cl	-1	0.7	8	7	17	-0.3	-5.2	3	i
O=C(NCc1ccccc1)c1ccc(S(=O)(=O)N2CCCC2)cc1	0	0.7	.	.	.	3.6	0.0	-9	.
Cc1ccc(-c2ccc(C#N)c(=O)n2CC(=O)N(C)C)cc1	-10	0.66	5	8	0.3	-0.2	1.7	-2	i
Cc1ccc(S(=O)(=O)NCCc2nnc3ccc(SCC(=O)Nc4nc5ccccc5s4)nn23)cc1	37	0.7	.	.	.	2.9	.	.	.
O=C(NN=C1CCCCCCC1)C(=O)NC1CCCCC1	-3	0.71	.	.	.	4.3	2.5	-5	.
Cc1cc(C(=O)N2CCCC(N3CCN(c4cccc(Cl)c4)CC3)C2)n(C)n1 (configuration not stated)	33	0.63	-2	12	1.3	0.7	0.3	3	i
C=CCN1C(c2cccc(C(F)(F)F)c2)=CS/C1=C(\C#N)c1nnc(N2CCOCC2)n1-c1ccccc1	.	.	4	5	2.5	.	-1.0	.	i
COc1ccc(OC)c(NC(=O)CSc2nc3ccccc3cc2Cc2ccccc2)c1	-10	0.74	.	.	.	6.9	-3.4	0	.
O=C(Nc1ccc2c(c1)OCCO2)c1cccc(S(=O)(=O)N2CCCCC2)c1	-2	0.74	.	.	.	2.9	2.5	1	.
COc1ccc2[nH]cc(CCNC(=O)c3ccc([N+](=O)[O-])cc3)c2c1	-18	0.7	-13	-4	-1.6	2.5	-1.6	2	i
Cc1ccc(S(=O)(=O)/N=C(\Nc2cccc(C)c2)Nc2nc(C)cc(C)n2)cc1	-3	0.69	16	9	-3.7	2.4	1.2	-19	i
CCN(CC)S(=O)(=O)c1ccc(NS(=O)(=O)c2cccc(C)c2)cc1	-8	0.74	.	.	.	2.8	-0.2	4	.
CCc1ccccc1NC(=O)c1ccc(NS(C)(=O)=O)cc1	-18	0.64	8	7	-2.4	0.2	-2.5	-7	i
COC(=O)[C@H](Cc1ccccc1)NC(=O)N1CCCCC1C (some centres not stated)	-5	0.71	.	.	.	4.9	-0.5	1	.
Cn1c(=O)c2cc(NC(=O)CCc3ccccc3)ccc2n1Cc1cccc(C(F)(F)F)c1	.	.	-1	1	-0.3	.	6.3	.	i

Source: PubChem
